# Screening results: PubChem BioAssay, National Center for Advancing Translational Sciences (NCATS)
# Rango dissoc inh = qHTS Assay for Inhibitors of RanGTP induced Rango (Ran-regulated importin-beta cargo) - Importin beta complex dissociation; Potency, µM (titrated, usually from 46.1 µM), inactives show at the top dose activity change, negative = inhibition; Biochemical FRET Rango-importin beta, RanGTP-induced dissociation; Snurportin-1 (Homo sapiens) + GTP-binding nuclear protein Ran (Homo sapiens) + Importin …; 340,000 tested, 0.071% active; active means falling FRET ratio curve, often poorly fitted, with flat reads before Ran was added; inconclusive means other falling curves, or compound fluorescence or quenching; inactive means flat or rising ratio curve;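 note: potency is the fitted concentration of half-maximal effect; % of control where 0% means no effect; nearly all actives have a fitted effect of over 45% in size; -100% = wells without RanGTP and RCC1; the record marks most hits as doubtful in a second field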
#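 Two FRET readings bracket the reaction: one 5 min after compound meets Rango–importin beta, another 45 min after RanGTP-RCC1 (0.6 uM Ran, 0.2 uM RCC1, 2 mM GTP) is added. Only the second defines inhibition.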
# Rango complex inh = qHTS Assay for Inhibitors of Rango (Ran-regulated importin-beta cargo) - Importin beta complex formation; Importin subunit beta-1 (Homo sapiens), Q14974; Rango CFP/YFP FRET sensor + importin beta, 45 min; Potency, µM (highest dose often 92.2 µM), for the others: at the top dose inhibition of complex formation; 340,000 tested, 0.031% active; active = rising FRET ratio curve, often small or poorly fitted; inconclusive = mostly compound fluorescence or quenching in the first reads; inactive = flat curves in all reads;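 note: potency is the fitted concentration of half-maximal effect; 0% = DMSO wells and 100% = buffer wells lacking importin beta; nearly all actives have a fitted effect of over 15% in size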
#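 Inhibition scored from the CFP 486 nm/YFP 530 nm FRET ratio 45 min after adding 0.125 microM importin beta to 50 nM Rango biosensor preincubated 5 min with compound (room temperature, PBS with DTT, Tween-20, BSA). No-importin wells as positive control.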
# GLA inh pH 4.5 = qHTS Assay for Inhibitors of Human alpha-Galactosidase at pH 4.5 | Alpha-galactosidase A (Homo sapiens), P06280 | purified enzyme, 4-MU-alpha-Gal fluorescence, pH 4.5 | activity change, negative = inhibition, % at 105 µM | 230,000 tested, under 10 active; inconclusive = small, poorly fitted or top-dose-only inhibition, or a rising curve; inactive = flat fitted curve, though single readings scatter; no compound was filed as active;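 note: 0% = full activity with enzyme and -100% = basal without enzyme; dose as in the result columns while the protocol names 77 µM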
# Target sequence (P06280 whole entry, looked up): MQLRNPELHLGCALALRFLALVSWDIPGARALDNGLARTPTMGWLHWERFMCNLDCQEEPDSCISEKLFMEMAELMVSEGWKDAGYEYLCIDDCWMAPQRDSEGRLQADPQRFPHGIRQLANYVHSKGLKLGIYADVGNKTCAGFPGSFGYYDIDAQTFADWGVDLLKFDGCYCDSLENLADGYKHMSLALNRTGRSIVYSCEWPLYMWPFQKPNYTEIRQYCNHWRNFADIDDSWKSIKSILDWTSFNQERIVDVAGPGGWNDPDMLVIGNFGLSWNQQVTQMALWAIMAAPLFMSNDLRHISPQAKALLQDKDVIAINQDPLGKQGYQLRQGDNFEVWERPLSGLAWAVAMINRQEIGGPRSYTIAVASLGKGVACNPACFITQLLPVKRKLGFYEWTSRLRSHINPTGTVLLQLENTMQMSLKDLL
# miR-21 FLuc = qHTS Assay for Modulators of miRNAs and/orActivators of miR-21 | Potency, µM (doses to about 38.3 µM), for the others: top-dose reporter change, positive = more light | HeLa miR-21 FLuc reporter, luciferase, 48 h | AID 2288, 2010 | 340,000 tested, under 10 active; active = well fitted rising curve with a large enough effect; inconclusive = small, poorly fitted or top-dose-only effect; inactive = no such curve, though single readings can be large or run the other way;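 note: % of control where 0% means no effect; miR-21 action dims this reporter so a rising signal means less miR-21 action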
#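 HeLa cells endogenously expressing miR-21, stably carrying CMV-driven firefly luciferase with a downstream miR-21 binding site, 2000 cells/well. Titrations up to approximately 40 uM, 48 hours; luciferase luminescence read.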
# Active calls of the source: *; ? = inconclusive; · = not tested or not shown; & = joins results of further samples. Only part of the results is shown; count on the stated rates, not on these rows.
Rango dissoc inh | Rango complex inh | GLA inh pH 4.5 | miR-21 FLuc | molecule
-7% | 2.6% | 7 | -8% | CC(C)COc1ccc(C(=O)N(Cc2ccco2)C2CCS(=O)(=O)C2)cc1 (stereo unspecified)
22% | -3.7% | -1 | 4% | Brc1cccc(-c2nnc3sc(CNC4CCCC4)cn23)c1
-1% | -4.6% | · | · | Cc1cc(C)c(OCC(=O)NCC(c2ccco2)N2CCCCC2)c(C)c1 (stereo unspecified)
1% | 1.5% | 3&7&-1 | -10% | O=C1c2ccccc2C(=O)C1c1ccccc1
? | ? | 5 | ? | CCCCN(C)CC(O)Cn1cc(/C=C/C(=O)c2cccs2)c2ccccc21 (stereo unspecified)
32% | -3.0% | 8 | 0% | CCN1CCN(CCCOc2ccc(Cl)cc2Br)CC1
11% | -4.7% | · | · | Cc1ccc(NC(=O)COC(=O)Cc2ccccc2)cc1S(=O)(=O)N1CCOCC1
30% | -1.3% | -2 | -3% | CC(C)c1nnc(NC(=O)C2c3ccccc3Oc3ccccc32)s1
-3% | -2.4% | -5 | -2% | O=C(OCC(=O)N1CCCCC1)c1cc(NS(=O)(=O)c2ccc(Cl)c([N+](=O)[O-])c2)ccc1O
36% | 0.6% | -5 | -8% | COC(=O)c1c(CSc2cccc(C)c2)noc1C(=O)NCc1ccco1
0% | -1.7% | 6 | -48% | Cc1ccc(C(=O)O/N=C(\N)c2cccc([N+](=O)[O-])c2)cc1
2% | ? | 5 | ? | Cc1ccc(CNC(=O)c2ccc3c(=O)c(O)c(-c4ccc(C)cc4)[nH]c3c2)cc1

# Part of the list above in order of heavy-atom count, falling:
Rango dissoc inh | Rango complex inh | GLA inh pH 4.5 | miR-21 FLuc | molecule
-3% | -2.4% | -5 | -2% | O=C(OCC(=O)N1CCCCC1)c1cc(NS(=O)(=O)c2ccc(Cl)c([N+](=O)[O-])c2)ccc1O
11% | -4.7% | · | · | Cc1ccc(NC(=O)COC(=O)Cc2ccccc2)cc1S(=O)(=O)N1CCOCC1
-1% | -4.6% | · | · | Cc1cc(C)c(OCC(=O)NCC(c2ccco2)N2CCCCC2)c(C)c1 (stereo unspecified)
30% | -1.3% | -2 | -3% | CC(C)c1nnc(NC(=O)C2c3ccccc3Oc3ccccc32)s1
22% | -3.7% | -1 | 4% | Brc1cccc(-c2nnc3sc(CNC4CCCC4)cn23)c1

# (cont.)
Rango dissoc inh | Rango complex inh | GLA inh pH 4.5 | miR-21 FLuc | molecule
? | 3.4% | · | -1% | CCCN(CCC)C(=O)c1ccc2nc(-c3ccc(OC)c(OC)c3)c(-c3ccc(OC)c(OC)c3)nc2c1
5% | 0.0% | 1 | -9% | CCOc1ccc(/C=N/NC(=O)C2(O)c3ccccc3-c3ccccc32)cc1
-7% | 0.7% | · | · | O=S(=O)(c1ccc(SCc2ccc(Cl)cc2)nc1)N1CCCC1
1% | 0.2% | · | · | O=C(COC(=O)C1CCC1)NCc1ccccc1
-13% | 5.8% | -4 | 5% | Cc1cc(-c2nnc3n2N=C(c2ccc(-c4ccccc4)cc2)CS3)n[nH]1
0% | 0.4% | -20 | -18% | COc1ccc(C2=NN(S(=O)(=O)c3ccccc3)C(c3ccccc3)C2)cc1 (stereo unspecified)
-12% | -1.3% | · | -10% | COc1ccc(/C(C)=N/NC(=O)c2ccc3nc[nH]c3c2)cc1
-8% | 0.4% | -14 | 29% | COc1ccc(C(CCNCc2ccc(OC(C)C)cc2)C(C)C)cc1 (stereo unspecified)
5% | 3.1% | 0 | 0% | O=C(Nc1ccc(Cl)cc1)C1CC(=O)n2c(nc3ccccc32)N1 (stereo unspecified)
4% | 3.7% | -6 | -1% | O=C(CSc1nnc(-c2ccncc2)n1Cc1ccco1)Nc1nc(-c2ccccc2)cs1
-8% | -1.7% | -7 | -2% | O=C(CSc1nnnn1-c1ccccc1)N1CCCc2ccccc21
4% | -1.8% | -3 | 28% | COC(=O)Nc1ccc(S(=O)(=O)N2c3ccccc3CCC2C)cc1 (stereo unspecified)
11% | -3.9% | · | -1% | CCCCc1nnc(NC(=O)CSCc2cc(=O)n3cc(C)sc3n2)s1
-19% | -3.7% | -3 | -8% | COc1ccc(CCNS(=O)(=O)c2cccc3cccnc23)cc1OC
0% | -1.2% | -2 | -10% | CCOc1ccc(-n2cc(-c3ccccc3)c3c(SC(C)C(=O)OC)ncnc32)cc1 (stereo unspecified)
1% | 2.1% | · | 3% | Cc1ccc(C)c(C(=O)Nc2ccncc2)c1
35% | 4.3% | -1 | -3% | O=C(CCS(=O)(=O)Cc1ccccc1)N1CCN(c2ccccc2)CC1
12% | -1.0% | -7 | -1% | CC(Sc1ccsc1[N+](=O)[O-])C(=O)N1CCN(c2ccccn2)CC1 (stereo unspecified)
5% | 0.9% | · | 0% | COc1cccc(/C=C2\SC(=O)N(CCC(=O)N3CCC(C(=O)O)CC3)C2=O)c1
-7% | 5.6% | 1 | -3% | CCOC(=O)c1c(C2COc3ccccc3O2)csc1NC(=O)c1ccco1 (stereo unspecified)
· | · | -2 | -29% | Cc1cc(C(=O)COC(=O)c2ccc(Br)o2)c(C)n1Cc1ccco1
0% | -1.8% | · | · | COc1ccc(CNC(=O)COC(=O)c2sccc2C)cc1OC
1% | -0.1% | 0 | 5% | Cn1nc(C(=O)Nc2ccc(S(=O)(=O)N3CCCC3)cc2)ccc1=O
-7% | 1.0% | · | -4%&-2% | COc1cc(NC(=O)CCc2c(C)nn(-c3ccc(N4CCOCC4)nn3)c2C)cc(OC)c1OC
-5% | -4.7% | · | 4% | Cc1ccc(N(CC(=O)NCc2ccc(F)cc2)C(=O)c2ccco2)cc1C
24% | 3.3% | 0 | 0% | O=S(=O)(c1ccc(Cl)nc1)N1CCc2ccccc21
9% | -2.7% | · | · | O=C(Nc1ccccc1N1CCCC1)C1CCN(S(=O)(=O)c2ccc(F)cc2)CC1
-15% | 6.7% | -5 | 0% | O=C(CCNc1n[nH]c(=O)[nH]c1=O)N/N=C/c1ccc(C(F)(F)F)cc1
· | · | -9 | -16% | C[n+]1nc(Nc2cccc3ccccc23)sc1-c1ccc(C(=O)O)cc1
-3% | -2.8% | 9 | -51% | Cc1cccc(-c2nc3cc(NC(=O)C4CCCO4)ccc3o2)c1 (stereo unspecified)
21% | -1.2% | 0 | 5% | COC(=O)Cn1c(=O)c(=O)n(CC(=O)OC)c2ccccc21
-2% | -1.3% | 0 | -2% | O=C(O)CCCCOn1ccnc1
19% | ? | 0 | -12% | O=[N+]([O-])c1ccc(N2CCSCC2)cc1
9% | 3.9% | · | 21% | COc1cccc(/C=N/NC(=O)c2nnn(-c3nonc3N)c2C(C)C)c1OCc1ccc(F)cc1
2% | -2.4% | · | -1% | CCCOP(=O)(c1ccc(N(C)C)cc1)C(O)c1cc(OC)ccc1OC (stereo unspecified)
8% | -2.9% | -3 | 2% | COc1cccc(NC(=O)CN(C)CC(=O)Nc2ccc(Br)cc2)c1
-4% | -1.5% | · | 2% | CCCn1nnnc1NCc1ccc(OC)cc1OC
14% | -1.2% | -5 | 1% | CCS(=O)(=O)N1CCCC(C(=O)NCC2CCCO2)C1 (stereo unspecified)
1% | -0.1% | -4 | -1% | O=C(c1ccccc1S(=O)(=O)NCC(O)COc1ccc([N+](=O)[O-])cc1)N1CCCCC1 (stereo unspecified)
1% | -1.7% | 4 | -14% | CC(C)CC(=O)NCCCCc1ccccc1
7% | 3.0% | · | · | Cc1nn(-c2ccccc2)c(C)c1C(=O)OCC(=O)N(C)c1ccccc1
-10% | -2.4% | 0 | -17% | O=C(Nc1ccccc1)N(CCN1CCOCC1)Cc1ccccc1F
12% | 0.5% | -9 | 2% | COC(=O)c1ccc(COc2cc([N+](=O)[O-])cc3cccnc23)cc1
· | · | 4 | -34% | Cc1ccc(CNc2ccc3c(c2)OCO3)c(C)c1
4% | -5.1% | -9 | -1% | COc1ccccc1C1=NOC(COC(=O)c2ccc(Br)cc2)C1 (stereo unspecified)
? | ? | -7 | -15% | COC(=O)c1cc[n+](CC(=O)c2ccccc2)cc1
3% | -4.8% | -4 | -24% | CN1CCN(/N=C/c2nc(-c3ccccc3Cl)n3ccccc23)CC1
3% | 0.3% | 1 | 3% | Cc1cc(C)c2cc(CN(CCO)C(=O)Nc3ccc(F)cc3)c(=O)[nH]c2c1
0% | -0.5% | · | · | Cc1ccc(C)c(Sc2ccc(S(=O)(=O)Nc3ccc(C(=O)O)cc3)cc2)c1
-7% | -5.7% | 3 | -21% | Cc1ccc(NC2=C/C(=N/S(=O)(=O)c3cccs3)c3ccccc3C2=O)cc1C
-7% | 0.3% | 3 | -3% | CCN(CC)S(=O)(=O)c1ccc(-c2nnc(SCC(=O)N3c4ccccc4CC3C)n2CC)cc1 (stereo unspecified)
5% | -1.1% | 10 | 4% | Cc1ccnc(NC(=O)c2ccc3c(c2)C(=O)N(CC2CCCO2)C3=O)c1 (stereo unspecified)
-32% | ? | 7 | ? | CCOc1ccc(Nc2c3ccccc3nc3ccccc23)cc1
5% | 1.5% | -8 | -8% | O=S(=O)(NCCc1ccncc1)c1cc(Br)ccc1F
-9% | 1.6% | 2 | 3% | Cc1cc(C(C#N)c2ccccc2)n2ncnc2n1 (stereo unspecified)
-5% | ? | · | · | COc1cccc(NC(=O)CN(C)C(=O)CSC(=S)N2CCCC2)c1
? | ? | -9 | 9% | C/C(=N/Nc1nc(-c2ccccc2F)nc2ccccc12)c1ccccc1O
-8% | -1.6% | · | 0% | CCc1ccc(NC(=O)C(=O)NNC(=O)c2cccc(OC)c2)cc1
-15% | 1.9% | -11 | -6% | Cc1cc(C)nc(N=Nc2c(O)n(Cc3ccc(Cl)cc3)c3ccccc23)n1
10% | 0.4% | · | -1% | COc1ccc(CN2CCC(N3CC(C)OC(C)C3)CC2)c(OC)c1OC (stereo unspecified)

# Additional records:
Rango dissoc inh | Rango complex inh | GLA inh pH 4.5 | miR-21 FLuc | molecule
4% | -0.4% | · | -4% | COc1ccc(OCC(=O)Nc2ccc(S(=O)(=O)N(C)c3ccccc3)cc2)cc1
12% | 2.5% | · | · | O=C(COC(=O)c1ccccc1)c1ccc2c(c1)OCCO2
-10% | -3.5% | 0 | -2% | Cc1ccccc1-c1nnnn1C1CCS(=O)(=O)C1 (stereo unspecified)
· | · | -5 | -6% | O=[N+]([O-])c1ccc2sc(SCc3nc4ccccn4c3Br)nc2c1
-5% | -1.8% | · | · | Cc1ncc(C(=O)Nc2ccccc2)[nH]1
-5% | -0.8% | · | · | CC(=O)c1ccccc1NC(=O)C1CCCN(C(=O)c2ccc(Cl)cc2)C1 (stereo unspecified)
1% | -0.4% | -4 | -12% | O=C(NC(=O)c1ccccc1F)OCc1ccc(Cl)cc1Cl
-4% | 0.1% | · | 12% | CC1CCCC(C)N1C(=O)c1ccc(S(=O)(=O)NCc2ccco2)cc1 (stereo unspecified)
-3% | -3.5% | · | · | O=C(C=Cc1ccccn1)c1ccccc1O
-21% | ? | 0 | -26% | COCCCNC(=S)Nc1ccc(C)cc1[N+](=O)[O-]
15% | -2.1% | -3 | -5% | Cc1ccc(-c2nn(Cc3ccccc3)cc2/C=C/C(=O)O)cc1
7% | 0.5% | · | -17% | C/C(=N/NC(=O)c1cc(C)[nH]n1)c1ccncc1
-22% | ? | -4 | 20% | O=C(c1cc(-c2ccccc2)n[nH]1)N1CCc2c([nH]c3ccccc23)C1c1ccccn1 (stereo unspecified)
14% | -1.2% | 10 | -1% | CCOc1ccccc1CN1CCN(C2CCSCC2)CC1CCO (stereo unspecified)
-30% | ? | -2 | -10% | CCOC(=O)C(CCCCCOc1ccccc1[N+](=O)[O-])C(=O)OCC
0% | 0.7% | · | 22% | CC(=O)CSc1ccc(-c2nc3ccccc3[nH]2)cn1
-2% | 1.1% | -11 | -2% | CCOC(=O)C1(Cc2ccccc2C(F)(F)F)CCN(C(C)CSC)CC1 (stereo unspecified)
11% | 1.2% | · | 2% | COc1ccc(CCNC(=O)C2CCCN(c3ncnc4c3nc3n4CCCCC3)C2)c(OC)c1 (stereo unspecified)
